Source: PubChem
RE007 growth inh: less growth of the S. pombe RE007 Vpr strain; S. pombe RE007 Vpr strain, BacTiter-Glo ATP luminescence, 24 h; control for the full effect not named in the record; Potency, µM (top dose mostly 92.2 µM), without a hit: top-dose activity change, negative = less growth; 0.21% of 360,000 active; active = well fitted falling curve with a large enough effect; inconclusive = small, poorly fitted or top-dose-only effect; inactive = no such curve, though single readings can be large or run the other way;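 further: on the % scale 0 is the no-effect control and ±100 the full control effect; nearly all actives have a fitted effect of over 50% in size; the assay follows cell death caused by Vpr and the record does not say whether a fall means rescue or toxicity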
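Fission yeast RE007 carrying one integrated HIV-1 vpr copy, seeded at OD 0.01 in PMG+AL medium with 23 nL pinned compound. Grown 24 h at 30 degrees; viability read by BacTiter-Glo luminescence after 5 min.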
Cruzain inh Det: cruzain (T. cruzi) inhibition with detergent; purified cruzain, Z-FR-AMC fluorescence, 0.01% Triton; P25779; 0.43% of 200,000 active; Potency, µM, inactives show max response, negative = inhibition, most hits filed as inhibitors; active means well fitted curve in the direction sought with a large enough effect; inconclusive means small, poorly fitted or top-dose-only effect, or another doubt; inactive means no such curve, though single readings can be large; an effect the other way counts as inactive or inconclusive;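 further: plate controls were neutral wells for no effect and buffer without enzyme for full effect; nearly all actives have a fitted effect of over 40% in size; top concentration of the series not given in the record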
Target sequence (P25779 123-467 limits assumed): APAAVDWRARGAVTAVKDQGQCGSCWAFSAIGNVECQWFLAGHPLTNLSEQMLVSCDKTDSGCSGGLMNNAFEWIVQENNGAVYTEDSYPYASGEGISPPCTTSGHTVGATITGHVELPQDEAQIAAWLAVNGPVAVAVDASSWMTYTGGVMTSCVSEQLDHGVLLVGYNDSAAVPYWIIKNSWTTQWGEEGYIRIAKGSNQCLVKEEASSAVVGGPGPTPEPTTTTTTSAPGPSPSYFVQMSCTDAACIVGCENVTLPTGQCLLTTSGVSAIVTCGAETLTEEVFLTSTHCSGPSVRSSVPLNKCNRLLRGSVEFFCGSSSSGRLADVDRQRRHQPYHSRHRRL
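Z-FR-AMC hydrolysis (2 uM substrate) by cruzain (1.5 nM) monitored kinetically at ex 360/em 450 nm after 15 min room-temperature compound exposure; 0.01% Triton X-100, pH 5.5, 5 mM DTT.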
StopGo reporter: FMDV 2A StopGo reporter, luciferase signal | Potency, µM (titrated, usually from 57.9 µM), without a hit: at the top dose signal change, negative = less light | 1.2% of 410,000 active | human cells with a luciferase reporter of 2A StopGo recoding; control for the full effect not named in the record; active = well fitted falling curve with a large enough effect; inconclusive = small, poorly fitted or top-dose-only effect; inactive = no such curve, though single readings can be large or run the other way; tested in HEK293T cells; further: on the % scale 0 is the no-effect control and ±100 the full control effect; nearly all actives have a fitted effect of over 45% in size; luciferase light after 4 h
Cruzain inh noDet: cruzain (T. cruzi) inhibition without detergent; AID 1476; 2.3% of 200,000 active; P25779; purified cruzain, Z-FR-AMC fluorescence, no detergent; Potency, µM, without a hit: max response, negative = inhibition, most hits filed as inhibitors; active means well fitted curve in the direction sought with a large enough effect; inconclusive means small, poorly fitted or top-dose-only effect, or another doubt; inactive means no such curve, though single readings can be large; an effect the other way counts as inactive or inconclusive;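 further: plate controls were enzyme without inhibitor for no effect and buffer without enzyme for full effect; nearly all actives have a fitted effect of over 40% in size; top concentration of the series not given in the record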
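Detergent-free condition (0.00005% Triton X-100) in acetate buffer pH 5.5 with DTT. 1.5 nM enzyme and compound were pre-mixed 15 min, then 2 uM Z-FR-AMC substrate added; reaction progress from fluorescence change between first and third reads (60 s).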
SARS PLpro yeast: inhibitors of SARS-CoV papain-like protease in yeast; S. cerevisiae expressing SARS-CoV PLpro, growth rescue; control for the full effect not named in the record; Potency, µM (highest dose often 32.9 µM), without a hit: at the highest dose activity, positive = growth rescue; 0.19% of 330,000 active; AID 485353; further: 0% is about no effect; nearly all actives have a fitted effect of over 55% in size; growth read by luminescence after 48 h
Marburg entry inh: Marburg virus entry inhibition. Potency, µM (doses to about 37.8 µM), inactives show at the top dose activity change, negative = inhibition, usual class: inhibitors. 1.8% of 300,000 active. Marburg virus pseudotyped entry inhibition, cell reporter; control for the full effect not named in the record; about a third of the inactives were read at about 46 µM. AID 540276; active = well fitted inhibition curve with a large enough effect; inconclusive = small, poorly fitted or top-dose-only effect, or effect the other way; inactive = flat fitted curve, though single readings scatter; tested in HEK293 cells; about a fifth of its hits are not listed in these tables; further: on the % scale 0 is the no-effect control and ±100 the full control effect; luciferase read-out
LASV entry inh: Lassa virus entry inhibition. Lassa virus pseudotype entry inhibition, cell reporter; control for the full effect not named in the record. Potency, µM (titrated, usually from 37.9 µM), for the others: at the highest dose activity change, negative = inhibition, actives largely listed as inhibitors. 1.2% of 300,000 active. AID 540256; active means well fitted inhibition curve with a large enough effect; inconclusive means small, poorly fitted or top-dose-only effect, or effect the other way; inactive means flat fitted curve, though single readings scatter; tested in HEK293 cells; further: on the % scale 0 is the no-effect control and ±100 the full control effect; nearly all actives have a fitted effect of over 50% in size; luciferase read-out
NS1 inh: influenza NS1 inhibition; 0.4% of 270,000 active; S. cerevisiae slowed by influenza A NS1, growth recovery by OD600; Potency, µM (doses to about 46.1 µM), without a hit: at the highest dose activity, positive = more growth; further: actives are rising curves; nearly all actives have a fitted effect of over 50% in size
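In this qHTS, NS1 from influenza A is expressed in budding yeast, where it slows growth. Cells are switched from glucose to 2% galactose medium (pH 6.0, -URA), treated with compound, and growth recovery is read at OD600.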
* hit, by the source's call; ? = inconclusive; nt = no result given; & = joins results of further samples; [ ] = dose if it differs, or a comment. Unless noted, the call rests on the fitted dose curve; in most records, active means well fitted rising curve with a large enough effect; inconclusive means small, poorly fitted or top-dose-only effect; inactive means no such curve, though single readings can be large or run the other way. Potency means the concentration at half of the fitted maximal effect.

SMILES	RE007 growth inh	Cruzain inh Det	StopGo reporter	Cruzain inh noDet	SARS PLpro yeast	Marburg entry inh	LASV entry inh	NS1 inh
CC(C)(C)OC(=O)N1CCC(NC(=O)c2[nH]cnc2C(=O)N[C@@H](Cc2ccccc2)C(=O)OCc2ccccc2)CC1	-14%	nt	-28%	nt	1%	nt	nt	?
O=C(O)c1ccccc1CSc1nc2ccccc2n1Cc1ccccc1C(=O)O	0%	nt	-16%	nt	6%	13%[46.1 µM]	?	nt
Cc1cccc(NC(=O)CSc2nnc(C)n2Cc2ccccc2)c1	-2%	-0.4%	-21%	1%	2%	-3%	2%	-4%
CCCCN(C(=O)c1ccc(N2CCCC2=O)cc1)c1c(N)n(CC(C)C)c(=O)[nH]c1=O	-19%	nt	-10%	nt	4%	3%	10%	nt
COc1ccccc1NC(=O)CSc1nccn1Cc1ccc(F)cc1	12%	nt	?	nt	-9%	-20%	-2%	-47%
COC(=O)c1c(C)[nH]c(C(=O)C(C)OC(=O)C2CC2)c1C (stereo unspecified)	-3%	nt	-5%	nt	-7%	?	-6%	nt
CC(=O)Nc1sc(NC(=O)c2ccco2)nc1-c1cccs1	-4%	nt	6%	nt	0%	14%[46.1 µM]	?	-2%
CCOc1ccc(NC(=O)Nc2ccc3c(c2)nnn3C)cc1	8%	1.1%	nt	-25%	-3%	9%	-6%	-47%
CCOCCSc1nnc2nc(C)cc(C)n12	11%	5.5%	-8%	?	-1%	0%	8%	-2%
Cc1noc(NC(=O)c2ccc(Cl)c(Cl)c2)c1Cl	7%	nt	13%	nt	5%	nt	nt	-66%
CCc1cc(=O)[nH]c(SCc2ccc(C)cc2)n1	15%	nt	20%	nt	-2%	?	9%[46.1 µM]	nt
CCOC(=O)c1oc2ccccc2c1NC(=O)c1ccccc1OC	1%	-23%	-29%	0%	-9%	?	-11%	-16%

Record cards, as listed above. Order of screens: RE007 growth inh	Cruzain inh Det	StopGo reporter	Cruzain inh noDet	SARS PLpro yeast	Marburg entry inh	LASV entry inh	NS1 inh
Shown for Cc1cccc(NC(=O)CSc2nnc(C)n2Cc2ccccc2)c1 → -2%	-0.4%	-21%	1%	2%	-3%	2%	-4%
Shown for COc1ccccc1NC(=O)CSc1nccn1Cc1ccc(F)cc1 → 12%	nt	?	nt	-9%	-20%	-2%	-47%

(continued)
SMILES	RE007 growth inh	Cruzain inh Det	StopGo reporter	Cruzain inh noDet	SARS PLpro yeast	Marburg entry inh	LASV entry inh	NS1 inh
Cc1ccc(S(=O)(=O)N(CC(O)CN2CCCCC2)c2ccccc2)cc1 (stereo unspecified)	-12%	-2.7%	-20%	0%	-4%	nt	nt	0%
C=C(C)c1cccc(C(C)(C)NC(=O)N2CCCC2)c1	-17%	3.3%	-9%	13%	2%	4%	22%	7%
CC(NC(=O)c1ccc(F)cc1Cl)C1CC2CCC1C2 (stereo unspecified)	26%	nt	10%	nt	2%	4%[46.1 µM]	18%	-11%
CC(C)(C)NC(=O)C1CC(=O)OC1(C)C (stereo unspecified)	-1%	2.8%	-1%	1%	2%	15%	8%	2%
CCOCCCn1c(SCc2ccccc2)nnc1-c1ccncc1	6%	nt	13%	nt	2%	-18%[46.1 µM]	-1%[46.1 µM]	-18%
COc1ccc(CN2C(=O)NC(=O)/C(=C\c3ccco3)C2=O)cc1	-14%	nt	-29%	nt	-3%	-2%[46.1 µM]	28%[46.1 µM]	nt
C1=Nc2ccccc2CN1c1ccccc1	10%	-2.5%	0%	9%	?	5%	-2%	33%
O=C(C1CCN(S(=O)(=O)c2ccccc2)CC1)N1CCC2(CC1)OCCO2	1%	5.3%	10%	0%	-11%	10%[46.1 µM]	-3%	-4%
Cc1ccc(CNc2nccn(-c3cc(C)cc(C)c3)c2=O)cc1	nt	-4.3%	-23%	-1%	nt	nt	0%[46.1 µM]	nt
Cc1ccc(C)c(CN2CCNC2=O)c1	-9%	-7.7%	-18%	-1%	?	-29%	7%	2%
C=CCn1c(COc2ccccc2)nnc1SCc1ccc(C#N)cc1	-8%	2.8%	-15%	-7%	-4%	-16%	-10%	-51%
Cc1nc2scc(-c3ccccc3)c2c(=O)n1N	1%	0.2%	-9%	-5%	-8%	-6%	-3%	-15%
Cn1ccnc1SCC(=O)Nc1ccc(Oc2ccccc2)cc1	3%	-0.2%	24%	22%	-7%	-18%	-24%	-46%
CN(C)S(=O)(=O)N1CCN(S(=O)(=O)c2ccc3ccccc3c2)CC1	-5%	2.0%	nt	?	-5%	-5%	-26%	0%
O=C1C(Cc2ccc(O)cc2)NC(=S)N1C1CCCCC1 (stereo unspecified)	-14%	nt	5%	nt	0%	9%[46.1 µM]	-28%	7%
COc1ccc(CCN2C(=O)CC(NNC(=O)c3ccccc3Br)C2=O)cc1OC (stereo unspecified)	7%	0.5%	-8%	3%	7%	14%	-8%	-4%
O=C(c1ccc2c(c1)N(Cc1ccccc1)C(=O)c1ccccc1S2(=O)=O)N1CCN(c2ccccn2)CC1	nt	1.6%	8%	16%	nt	3.5µM*	?	nt
Cc1nn(-c2ccc(F)cc2)c(Cl)c1/C=N/NC(=O)c1cccs1	nt	-0.5%	32%[activator]	-1%	-10%	28%	-17%	9%
Fc1ccc(OCCCCCN2CCCC2)cc1	-1%	-2.5%	nt	-1%	1%	3%	5%	17%
Cc1ccc(NC(=O)C2CCCN(S(=O)(=O)c3c(C)n[nH]c3C)C2)cc1Cl (stereo unspecified)	nt	-8.5%	?	-7%	nt	12%[46.1 µM]	-3%[46.1 µM]	nt
C=C1c2cc(OC)ccc2NC(=O)N1CC	-12%	-2.8%	0%	-3%	3%	-11%&-11%	-1%	-2%
O=C(NNc1nc(N2CCCC2)nc(N2CCCC2)n1)c1ccccc1	9%	nt	-1%	nt	nt	-23%	15%	nt
CC(=O)N1CCc2cc(S(=O)(=O)NCCC(=O)Nc3cccc(C)c3C)ccc21	16%	1.0%	-14%	1%	6%	8%[46.1 µM]	4%	11%
CCn1c(SCCC(=O)Nc2ccccc2)nnc1-c1ccc(OC)cc1	-1%	0.5%	-23%	6%	1%	-4%	-7%	-5%
COc1cc(OC)c2c(-c3ccccc3)cc(=O)oc2c1C(CCN1CCN(c2ccccc2)CC1)c1ccc(N(C)C)cc1 (stereo unspecified)	-16%	nt	6%	nt	-3%	nt	nt	-2%
Cc1ccc(N(CN2C(=O)C3CC=CCC3C2=O)C(=O)c2ccco2)cc1Cl (stereo unspecified)	1%	-0.1%	-21%	-9%	2%	-20%	-11%	0%
CCC(=O)NC(=S)Nc1cccc(NC(=O)CC)c1	10%	0.1%	-1%	-5%	4%	8%	?	-10%
O=C(NCC1CCCO1)c1ccc(CS(=O)(=O)c2ccc(Br)cc2)o1 (stereo unspecified)	5%	-0.7%	-27%	2%	3%	nt	nt	-10%
O=C(CC1C(=O)NCCN1C(=O)c1ccc([N+](=O)[O-])cc1)Nc1cccc(Cl)c1 (stereo unspecified)	0%	nt	-17%	nt	-3%	19%	3%	14%
Cc1cc(C)c(NC(=O)CNC(=O)CN(C)Cc2ccc(Br)s2)c(C)c1	27%	nt	-3%	nt	3%	-21%	4%	nt
CN(C)/C=C(\C(=O)c1ccc(F)cc1F)c1nnnn1-c1ccccc1	18%	-3.1%	-10%	-3%	17%	-22%	-6%	-14%
Cc1ccc(N2C(=O)C3ON(c4ccccc4)C(c4ccncc4)C3C2=O)c(C)c1 (stereo unspecified)	-19%	-2.5%	-8%	?	-5%	-23%	1%	-33%
NC(=O)C1(N2CCCCC2)CCN(C(=O)CSc2nc3ccccc3[nH]2)CC1	-3%	0.2%	-13%	-15%	-8%	-2%&-2%	-1%	0%
O=C(NC(O)C(=O)c1ccccc1)c1ccc(F)cc1 (stereo unspecified)	1%	nt	13%	nt	5%	0%[46.1 µM]	22%	-1%
Cc1cc(NS(=O)(=O)c2c(C)c(C)cc(C)c2C)no1	-10%	nt	49%[activator]	nt	-6%	nt	nt	-56%
CN1C(=O)C2(c3ccccc31)C1CCCC=C1C(C#N)=C(N)C2(C#N)C#N (stereo unspecified)	6%	3.2%	-21%	?	6%	-6%	-24%	24%
Cc1cccc(N(CC(=O)NCc2ccccc2)C(=O)CCC(=O)Nc2nccs2)c1	-1%	nt	-3%	nt	0%	-15%[46.1 µM]	-8%	-1%
CCOc1ccc2[nH]c(C)c(CN(C)C)c(=O)c2c1	15%	-4.5%	nt	-5%	0%	-19%	17%	-2%
Cc1c(C)n(C)c2ccc(C(=O)NCCCN(C)C3CCCCC3)cc12	-18%	nt	?	nt	22%	nt	nt	9%
C=CCNC(=O)c1cc2c(=O)c3ccccc3oc2nc1C	4%	nt	17%	nt	1%	16%[46.1 µM]	?	1%
CC(=O)Nc1ccc2[nH]c3ccccc3c2c1	0%	0.2%	nt	2%	-7%	26%	22%	-7%
CC[C@@]12C(=O)N(c3ccc(C)cc3)C(=O)N1[C@H](c1ccc(Br)cc1)[C@@H]1C(=O)N(C(C)(C)C)C(=O)[C@@H]12	0%	nt	-14%	nt	9%	nt	nt	5%
O=C(NC1CCCN(c2ccc(C(F)(F)F)cn2)C1)c1cc(Cl)ccc1F (stereo unspecified)	-10%	nt	-17%	nt	5%	-1%	-11%	2%
COc1cc(NC(=O)c2ccc(S(=O)(=O)N(C)C)cc2)cc(OC)c1OC	-4%	-1.4%	nt	-3%	0%	13%	2%	2%
Cc1cc(C)n2c(SCC(=O)N(C)C3CCS(=O)(=O)C3)nnc2n1 (stereo unspecified)	7%	4.9%	-2%	-3%	-3%	-8%[46.1 µM]	0%	5%
C/C(=N\NC(=O)c1cc(O)ccc1O)c1cccc(NC(=O)c2ccc(Cl)cc2)c1	3%	nt	-28%	nt	-2%	?	?	-10%
CCOC(=O)C1=NNC2(c3ccc(Cl)cc3)C(=O)N(c3cc(C)cc(C)c3)C(=O)C12 (stereo unspecified)	-11%	-1.8%	-6%	3%	-2%	-17%	-1%	?
O=S(=O)(Nc1ccc2c(c1)OCCO2)c1ccc(Br)s1	5%	-2.0%	10%	-8%	-7%	3%	?	-3%
CC(Oc1ccc(Cl)cc1Cl)C(=O)Nc1ccc(S(=O)(=O)Nc2cnc3ccccc3n2)cc1 (stereo unspecified)	-5%	22µM*	57%[activator]	-2%	-12%	?	-6%	27%
